StopGo reporter: FMDV 2A StopGo reporter, luciferase signal | human cells with a luciferase reporter of 2A StopGo recoding; control for the full effect not named in the record | Potency, µM (titrated, usually from 57.9 µM), inactives show at the highest dose signal change, negative = less light | 1.2% of 410,000 active | AID 1159524; active = well fitted falling curve with a large enough effect; inconclusive = small, poorly fitted or top-dose-only effect; inactive = no such curve, though single readings can be large or run the other way; tested in HEK293T cells; further: on the % scale 0 is the no-effect control and ±100 the full control effect; nearly all actives have a fitted effect of over 45% in size; luciferase light after 4 h
NS1 inh: blocks influenza NS1 protein function; Potency, µM (titrated, usually from 46.1 µM), for the others: at the highest dose activity, positive = more growth; 0.4% of 270,000 active; S. cerevisiae slowed by influenza A NS1, growth recovery by OD600; active means well fitted rising curve with a large enough effect; inconclusive means small, poorly fitted or top-dose-only effect; inactive means no such curve, though single readings can be large or run the other way; further: nearly all actives have a fitted effect of over 50% in size
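OD600 was taken as the measure of yeast growth restored by compound in an NS1-expressing S. cerevisiae strain. Cells had been washed out of glucose medium and diluted 1:100 into galactose -URA medium, pH 6.0.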
Marburg entry inh: inhibitors of Marburg virus binding or cell entry. Marburg virus pseudotyped entry inhibition, cell reporter; control for the full effect not named in the record; about a third of the inactives were read at about 46 µM. Potency, µM (titrated, usually from 37.8 µM), without a hit: at the top dose activity change, negative = inhibition, most hits filed as inhibitors. 1.8% of 300,000 active. AID 540276; active = well fitted inhibition curve with a large enough effect; inconclusive = small, poorly fitted or top-dose-only effect, or effect the other way; inactive = flat fitted curve, though single readings scatter; tested in HEK293 cells; about a fifth of its hits are not listed in these tables; further: on the % scale 0 is the no-effect control and ±100 the full control effect; luciferase read-out
Cruzain inh Det: blocks cruzain activity in presence of Triton detergent; purified cruzain, Z-FR-AMC fluorescence, 0.01% Triton; Potency, µM, for inactives: max response, negative = inhibition, actives largely listed as inhibitors; P25779; 0.43% of 200,000 active; AID 1478;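 further: plate controls were neutral wells for no effect and buffer without enzyme for full effect; nearly all actives have a fitted effect of over 40% in size; top concentration of the series not given in the record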
Target sequence (P25779 123-467 limits assumed): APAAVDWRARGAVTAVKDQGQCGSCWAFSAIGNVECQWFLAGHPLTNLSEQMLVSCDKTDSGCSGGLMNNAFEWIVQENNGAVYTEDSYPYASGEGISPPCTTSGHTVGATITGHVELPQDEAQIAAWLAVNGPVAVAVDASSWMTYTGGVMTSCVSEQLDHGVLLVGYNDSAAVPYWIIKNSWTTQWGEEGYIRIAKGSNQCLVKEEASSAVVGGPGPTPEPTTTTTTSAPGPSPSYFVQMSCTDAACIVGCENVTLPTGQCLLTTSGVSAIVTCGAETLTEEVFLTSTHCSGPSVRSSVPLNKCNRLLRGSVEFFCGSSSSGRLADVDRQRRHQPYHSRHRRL
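Cysteine protease activity tested under reducing, mildly acidic conditions (100 mM sodium acetate pH 5.5, 5 mM DTT) plus 0.01% Triton X-100. Cruzain 1.5 nM; substrate Z-FR-AMC 2 uM; 15 min compound preincubation at room temperature.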
LASV entry inh: blocks Lassa virus binding to or entry into cells. Lassa virus pseudotype entry inhibition, cell reporter; control for the full effect not named in the record. Potency, µM (top dose mostly 37.9 µM), without a hit: top-dose activity change, negative = inhibition, actives largely listed as inhibitors. 1.2% of 300,000 active; active means well fitted inhibition curve with a large enough effect; inconclusive means small, poorly fitted or top-dose-only effect, or effect the other way; inactive means flat fitted curve, though single readings scatter; tested in HEK293 cells; further: on the % scale 0 is the no-effect control and ±100 the full control effect; nearly all actives have a fitted effect of over 50% in size; luciferase read-out
SARS PLpro yeast: blocks SARS-CoV papain-like protease in a yeast assay; Potency, µM (top dose mostly 32.9 µM), without a hit: at the highest dose activity, positive = growth rescue; AID 485353; 0.19% of 330,000 active; S. cerevisiae expressing SARS-CoV PLpro, growth rescue; control for the full effect not named in the record; active means well fitted rising curve with a large enough effect; inconclusive means small, poorly fitted or top-dose-only effect; inactive means no such curve, though single readings can be large or run the other way; further: 0% is about no effect; nearly all actives have a fitted effect of over 55% in size; growth read by luminescence after 48 h
RE007 growth inh: less growth of the S. pombe RE007 Vpr strain; S. pombe RE007 Vpr strain, BacTiter-Glo ATP luminescence, 24 h; control for the full effect not named in the record; Potency, µM (highest dose often 92.2 µM), inactives show at the top dose activity change, negative = less growth; 0.21% of 360,000 active; AID 651644; active = well fitted falling curve with a large enough effect; inconclusive = small, poorly fitted or top-dose-only effect; inactive = no such curve, though single readings can be large or run the other way;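 further: on the % scale 0 is the no-effect control and ±100 the full control effect; nearly all actives have a fitted effect of over 50% in size; the assay follows cell death caused by Vpr and the record does not say whether a fall means rescue or toxicity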
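Fission yeast strain RE007, carrying one chromosomally integrated HIV-1 vpr copy, was seeded at OD 0.01 in PMG+AL medium with 23 nL pinned compound. After 24 h at 30 °C and 99% humidity, viability was read by BacTiter-Glo luminescence.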
Cruzain noTriton: inhibitors of Trypanosoma cruzi cruzain without detergent. 2.3% of 200,000 active. Potency, µM, for inactives: max response, negative = inhibition, most hits filed as inhibitors. P25779. AID 1476. purified cruzain, Z-FR-AMC fluorescence, no detergent;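 further: plate controls were enzyme without inhibitor for no effect and buffer without enzyme for full effect; nearly all actives have a fitted effect of over 40% in size; top concentration of the series not given in the record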
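Purified cruzain at 1.5 nM, pre-incubated 15 min with compound at room temperature in 100 mM sodium acetate pH 5.5, 5 mM DTT, 0.00005% Triton X-100. Reaction started with 2 uM Z-FR-AMC; AMC fluorescence increase over 60 s gives rate.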
The depositor's hits bear a star; ? = inconclusive; nt = no result given; & = joins results of further samples; [ ] = remark or other dose. Unless noted, the call rests on the fitted dose curve; in most records, active means well fitted curve in the direction sought with a large enough effect; inconclusive means small, poorly fitted or top-dose-only effect, or another doubt; inactive means no such curve, though single readings can be large; an effect the other way counts as inactive or inconclusive. Potency means the concentration at half of the fitted maximal effect.

SMILES	StopGo reporter	NS1 inh	Marburg entry inh	Cruzain inh Det	LASV entry inh	SARS PLpro yeast	RE007 growth inh	Cruzain noTriton
Cc1ccc(N=Cc2c(O)n(-c3ccc4c(c3)OCO4)c(=O)c3ccccc23)cc1	-26%	18%	2%	-2.6%	-9%	-9%	1%	3.2µM*
CCCc1[nH][nH]c(=O)c1C(c1ccc(Cl)cc1)C(C#N)C#N (stereo not drawn)	nt	-5%	-8%	-9.3%	3%	-5%	-20%	-3%
O=c1[nH]cnc2c1nc(NCc1ccccc1)n2C1O[C@@H](CO)[C@H](O)[C@@H]1O (stereo partly drawn)	-11%	6%	-4%[46.1 µM]	nt	2%[46.1 µM]	1%	6%	nt
O=C(Nc1ccccc1Br)c1cccc2ccccc12	27%	nt	-17%	nt	28%	nt	-8%	nt
COc1cc2ccccc2cc1C(=O)Nc1ccc(C)cn1	24%	-12%	nt	nt	nt	-7%	-3%	nt
COc1ccc(N(CC(=O)NCc2ccccc2OC)S(=O)(=O)c2ccccc2)cc1	-14%	?	10µM*	nt	5%[46.1 µM]	2%	0%	nt
CC(Sc1nnnn1-c1ccc(O)cc1)C(=O)NNC(=O)c1ccc(F)cc1 (stereo not drawn)	-7%	nt	-13%	nt	-7%	0%	-2%	nt
C[C@H](CCC(=O)NCC(=O)O)[C@H]1CC[C@H]2[C@@H]3[C@H](O)C[C@@H]4C[C@H](O)CC[C@]4(C)[C@H]3C[C@H](O)[C@]12C	-9%&-10%&-12%	7%	nt	nt	nt	4%	-7%&-5%&28%[18.4 µM]	nt
CCOc1cccc2cc(C(=O)Nc3ccccc3-c3ccccc3)c(=O)oc12	-6%	9%	1%	-4.0%	11%	-4%	-11%	2%
Cc1cc2c(cc1C)NC(C)CC(=O)N2 (stereo not drawn)	46%[activator]	nt	2%[46.1 µM]	nt	5%[46.1 µM]	nt	3%	nt
CCCNC(=O)c1ccc2c(c1)N(Cc1cccc(C)c1)C(=O)c1ccccc1S2	-3%	nt	nt	0.5%	-25%[46.1 µM]	nt	nt	1%
COc1ccc(S(=O)(=O)NCC2CCCN(C(=O)CNC(C)=O)C2)cc1 (stereo not drawn)	-6%	-2%	nt	nt	nt	0%	-14%	nt
COc1cc(CNCCSc2nnnn2C)cc(Cl)c1OCc1ccccc1	-19%	nt	?	-0.1%	-15%[46.1 µM]	nt	nt	2%
CCOC(=O)CSc1nc2c(sc(=S)n2-c2ccc(CC)cc2)c(=O)[nH]1	-24%	4%	14%[46.1 µM]	nt	-1%[46.1 µM]	-1%	-7%	nt
O=C(CSc1nc2scc(-c3ccccc3)c2c(=O)[nH]1)N1CCOCC1	-21%	8%	-1%	nt	1%	nt	1%	nt
CN1CCN(C(=O)CSc2nc(-c3cccs3)ccc2C#N)CC1	8%	11%	27%&27%	-15%	15%	2%	-6%	-14%
COc1ccccc1N1C(=O)c2ccccc2NC1c1ccc(O)cc1 (stereo not drawn)	-1%	0%	nt	nt	nt	-1%	-6%	nt
O=C(CSc1ncnc2scc(-c3ccc(F)cc3)c12)c1ccc2c(c1)OCCO2	?	?	?	-6.0%	-19%	-7%	-2%	?
Cc1cccnc1NC(=O)c1ccc(S(=O)(=O)N2CCCCC2)cc1	0%	nt	18%	nt	14%	-3%	-9%	nt
O=C(Nc1ccccn1)c1ccc(S(=O)(=O)N2CCCCCC2)cc1	-11%	nt	?	nt	3%	nt	4%	nt
Cc1c(Cl)cccc1N(CC(=O)N1CCCCCC1)S(C)(=O)=O	nt	-3%	7%	4.3%	9%	4%	9%	5%
C=CCC(=O)OCC(=O)Nc1ccc(Oc2ccccc2)cc1	nt	-124%	1%	-5.9%	nt	-19%	nt	-2%
COc1cccc(NC(=O)CN(C)CC(=O)Nc2cccc(C(F)(F)F)c2)c1	-17%	4%	?	nt	?	1%	-3%	nt
Cc1nc2ccc(C(=O)Nc3ccccc3Cl)cc2s1	60%[activator]	-37%	nt	nt	nt	-6%	-20%	nt
O=C(COc1ccccc1)N1CCN(Cc2c[nH]c3ccccc23)CC1	-18%	2%	-1%	-0.8%	-6%	-2%	-8%	10%
CCOC(=O)C(NCCc1ccc(F)cc1)(NC(=O)CC)C(F)(F)F (stereo not drawn)	-20%	-22%	17%	0.1%	2%	-41%	-9%	10%
O=C(c1ccc2c(c1)OCO2)C1CCCN(C(=O)Nc2ccc(F)cc2F)C1 (stereo not drawn)	5%	-9%	nt	nt	nt	-1%	-16%	nt
CC(CC(F)(F)F)N1CCC(n2nccc2NC(=O)CCCc2ccccc2)CC1 (stereo not drawn)	-18%	16%	nt	nt	nt	3%	-9%	nt
Cc1ccc(Br)c(NS(=O)(=O)c2cccc(C(=O)N3CCNC(=O)C3)c2)c1	38%[activator]	nt	-7%	nt	-10%	-2%	-13%	nt
CCOC(=O)C(C)C1(O)c2ccccc2-c2ncccc21 (stereo not drawn)	-20%	-4%	0%	6.7%	-10%	3%	-13%	-5%
CCOC(=O)N1CCN(CC(=O)c2c[nH]c3ccc(F)cc23)CC1	nt	-6%	-1%	-1.2%	nt	-3%	nt	8%
CC(NC(=O)Cc1ccsc1)c1ccc(S(N)(=O)=O)cc1 (stereo not drawn)	-7%	5%	-3%	3.6%	11%	8%	2%	-1%
COc1ccc(OCC(=O)OCCN(C)C)cc1	-12%	3%	-12%&-12%	-0.9%	-5%	nt	28%	7%
Cc1ccc(CSCCNC(=O)CN(c2ccc(F)cc2)S(C)(=O)=O)cc1	-8%	-6%	nt	nt	nt	2%	7%	nt
CC(C)(CNC(=O)c1cc(=O)[nH]c2ccccc12)N1CCOCC1	-8%	-47%	?	-0.6%	0%	5%	22%	-1%
COc1ccc(S(=O)(=O)Nc2c(C)nc3nc(C)[nH]n3c2=O)cc1	2%&-9%	24%	2%&12%[46.1 µM]	0.0%	17%	0%	7%	10%
Cn1nnc2cc(C(=O)NCc3ccc4c(c3)OCO4)ccc21	5%	6%	12%[46.1 µM]	2.0%	1%	-3%	-2%	-4%
COc1cccc(-n2c(SCc3cccc(C)c3)nc3c([nH]c4ccccc43)c2=O)c1	0%	nt	nt	-1.5%	?	nt	nt	16µM*
O=S(=O)(c1ccc(F)c2ccccc12)N1CCCCC1	0%	-50%	-15%	-1.7%	11%	-17%	-20%	-6%
CCN1CCCC1CNC(=O)c1cc2cc(F)ccc2[nH]1 (stereo not drawn)	-24%	2%	nt	nt	nt	-1%	-5%	nt
CCOC(=O)c1c(NC(=O)Cn2c(=O)oc3ccccc32)oc(C)c1C(C)=O	-2%	-3%	11%	0.4%	-13%	-8%	4%	1%
COc1cccc(NCc2cccn2-c2nnc(N3CCC(C)CC3)s2)c1	0%	nt	nt	-3.8%	-1%[46.1 µM]	nt	nt	-13%
COc1ccccc1C(=O)OC(C)CN1CCN(C)CC1 (stereo not drawn)	2%	5%	nt	nt	nt	-4%	-5%	nt
Cc1ccc(C)c(S(=O)(=O)NC(C)C(=O)NCc2ccccn2)c1 (stereo not drawn)	-1%	8%	?	nt	?	-2%	-11%	nt
Cc1nn(CC(=O)Nc2ccc(S(=O)(=O)N(C)C)cc2)c(C)c1[N+](=O)[O-]	0%	5%	3%[46.1 µM]	0.4%	15%	12%	-13%	7%
COc1cc(NC(=O)C2Cc3ccccc3N2C(=O)c2ccccc2)cc(OC)c1 (stereo not drawn)	-14%	nt	nt	-3.6%	-9%[46.1 µM]	nt	nt	-21%
CC(C)OCCCNC(=O)CN1C(=O)CSc2ccc(S(=O)(=O)N3CCOCC3)cc21	-7%&-6%	nt	nt	-0.2%	17%[46.1 µM]	nt	-2%	-3%
CCc1ccc2c(c1)C1(NN=C(c3cccc4ccccc34)S1)C(=O)N2 (stereo not drawn)	nt	?	nt	1.6%	nt	-5%	nt	-24%
Nc1ccc(CSc2ccccc2)cc1	28%	nt	17%[46.1 µM]	nt	-12%[46.1 µM]	nt	-7%	nt
O=C(CNC(=O)c1ccc(Cl)cc1Cl)OCC(=O)c1ccc2c(c1)OCCO2	32%	-47%	7%	3.2µM*	21%	-11%	2%	3.2µM*
Cc1ccc2c(c1)N(CC(=O)NCCc1ccc(Cl)cc1)C(=O)c1cccnc1O2	-18%&-14%	29%	nt	nt	3%[46.1 µM]	6%	6%	nt
Cc1nc(NC(=O)c2ccccc2)sc1-c1csc(Nc2ccc(Cl)cc2Cl)n1	nt	15%	0%	0.2%	nt	4%	nt	7.9µM*
Cc1c(Cl)cccc1Nc1nn2c(=O)c3ccc(C(=O)N(C)Cc4ccccc4)cc3nc2s1	0%	nt	nt	-2.3%	-4%[46.1 µM]	nt	nt	4%
CC(NC(=O)C1CCCC1)c1ccc2c(c1)OCCO2 (stereo not drawn)	-12%	3%	-1%	2.8%	-15%	14%	32%	-6%
OC(Cn1cncn1)(Cn1cncn1)c1ccc(F)cc1F	-22%&-3%	nt	nt	-3.2%	nt	nt	5%[18.4 µM]	-10%
CCOc1ccc(S(=O)(=O)N2CCN(C(=S)NCc3ccccc3)CC2)cc1	-17%	3%	nt	nt	nt	-1%	12%	nt
COc1ccc(OC)c(CN2CCN(C(=O)c3ccc(NS(=O)(=O)c4cccc([N+](=O)[O-])c4)cc3)CC2)c1	-22%	nt	8%	nt	-3%	10%	-2%	nt
C=CCOc1c(Cl)cc(CNc2ccc(C)c(Cl)c2)cc1OC	nt	0%	-4%	-8.0%	nt	-17%	nt	-13%
CC(C)(C)OC(=O)NNC(=O)c1ccc(Cl)cc1	8%	9%	-3%	0.4%	1%	7%	17%	1%
O=C(CCc1ccc(S(=O)(=O)N2CCOCC2)cc1)NN=C1CCCCCCC1	-19%	0%	-15%	-1.4%	?	-1%	6%	9%
Additional records follow:
SMILES	StopGo reporter	NS1 inh	Marburg entry inh	Cruzain inh Det	LASV entry inh	SARS PLpro yeast	RE007 growth inh	Cruzain noTriton
CCC(CC)C1C(C#N)=C(N)SC(N)=C1C#N	0%	-4%	?	-4.3%	-16%	-1%	3%	9%
O=C1C(=O)N(CCOCCO)C(c2ccccn2)/C1=C(\O)c1ccccc1 (stereo not drawn)	4%	?	1%	-3.3%	?	1%	9%	6%
Cc1c(C)c2ccc(OCC(=O)N(C)C3CCS(=O)(=O)C3)c(C)c2oc1=O (stereo not drawn)	33%[activator]	-11%	nt	nt	nt	0%	6%	nt
Cc1ccsc1C1C(C#N)=C(N)OC2=C1C(=O)CC(C)C2 (stereo not drawn)	-25%	nt	24%[46.1 µM]	nt	4%[46.1 µM]	-4%	4%	nt

Assay outcomes: PubChem, National Center for Advancing Translational Sciences (NCATS)
